Screening data (PubChem)
MgrA DNA FP: modulators of Staphylococcus aureus MgrA DNA binding. fluorescence polarization. inhibition, %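 (about 10 µg/mL by stock and volumes)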. 0.13% of 84,000 active;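 active means above 50% in either of two replicates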;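 further: 0% = protein plus DNA without compound and 100% = DNA alone without protein; higher means less MgrA bound to DNA so lower polarization; one replicate is shown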
S aureus helic: blocks Staphylococcus aureus DNA helicase; 0.05% of 120,000 active; purified S. aureus helicase, fluorescence unwinding assay; about half of the hits fall short of the stated cut; inhibition, %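 (tested at about 80 µM)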;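 active means both duplicates at 50% or more, or one of them with a favoured structure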;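 further: 0% = mean of negative control wells and 100% = mean of positive control wells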
Starred values were filed as active, the others as inactive; nt = no result given.

Structure | MgrA DNA FP | S aureus helic
Cc1noc(C)c1C(=O)N1CCc2sccc2C1c1ccc(C(F)(F)F)cc1 (stereo unspecified) | 1.1 | nt
NC(=O)CSc1nc2cc(Cl)ccc2s1 | 1.5 | 0
CN(C)CCNc1cc(-c2ccccc2)nc2ccccc12 | 2.8 | nt
Nc1ccccc1-n1ccnc1 | 1.3 | -2
CCOC(=O)COc1ccc2c(C#N)c3ccccn3c2c1 | 17 | nt
CC(C)c1nc(N2CCN(C(=O)c3ccccc3)CC2)c(C#N)c2c1COC(C)(C)C2 | 0.4 | 3
O=C(NCc1ccc(Cl)cc1)c1ccc(Cn2c(=O)[nH]c3ccsc3c2=O)cc1 | 5.6 | 6
CC1CC(=O)c2ccc(O)cc21 (stereo unspecified) | nt | 11
Cc1cc(Cl)ccc1NC(=S)NN | 3.1 | nt
CC(=O)OCCn1c(=O)c2cc3c(=O)n(CCOC(C)=O)c(=O)c3cc2c1=O | nt | 2
O=C(Nc1nncs1)c1ccccc1NS(=O)(=O)c1cccs1 | nt | 11
COc1ccc(-c2cc(C3CC3)nc3sc(C(N)=O)c(N)c23)cc1 | nt | 12
CCN(CC)S(=O)(=O)c1ccc(C)c(C(=O)Nc2cc(C)on2)c1 | 0.3 | -2
CC1=CC(=C2C(=O)NC(=S)NC2=O)C=C(C)N1CCc1ccccc1 | nt | 10
CC1(C)CC(=O)C2=C(C1)OC(N)=C(C#N)C2c1c2ccccc2cc2ccccc12 (stereo unspecified) | 2.0 | nt
CC(O)c1cccc(NC(=O)c2cnn3c2NC(c2cccs2)CC3C(F)(F)F)c1 (stereo unspecified) | 0.3 | -8
CCOC(=O)c1c[nH]n(-c2ccccc2)c1=O | -2.2 | -10
CS(=O)(=O)C1=NSC2=NC(=O)/C(=C\c3ccco3)C(=N)N21 | nt | 26
O=C1CCC(=O)N1CNc1ccccn1 | -1.9 | nt
O=C(Nc1ccccc1)c1ncoc1-c1ccccc1 | -0.3 | nt

Given with two lines to a compound: part of the list above
The line under a structure holds: MgrA DNA FP | S aureus helic
> CC1CC(=O)c2ccc(O)cc21 (stereo unspecified)
→ nt | 11
> Cc1cc(Cl)ccc1NC(=S)NN
→ 3.1 | nt
> CC(=O)OCCn1c(=O)c2cc3c(=O)n(CCOC(C)=O)c(=O)c3cc2c1=O
→ nt | 2
> O=C(Nc1nncs1)c1ccccc1NS(=O)(=O)c1cccs1
→ nt | 11
> COc1ccc(-c2cc(C3CC3)nc3sc(C(N)=O)c(N)c23)cc1
→ nt | 12

Later entries:
Structure | MgrA DNA FP | S aureus helic
CC(C(=O)O)n1c2ccccc2c2cnn(C)c(=O)c21 (stereo unspecified) | -0.2 | 8
CCOC(=O)c1ccc(S(=O)(=O)N2CCN(CN3C(=O)CCC3=O)CC2)cc1 | nt | 7
O=C(Nc1cccc(Cl)c1)c1cc2c(s1)-c1ccccc1S(=O)(=O)C2 | nt | 1
Cc1nnc(Sc2ccc([N+](=O)[O-])c(Sc3nnc(C)s3)n2)s1 | -0.7 | nt
Cc1ccc2c(c1)c1c(n2CC(O)CN2CCCCC2)C(=O)CCC1 (stereo unspecified) | -0.9 | 10
Cc1ccc(CN(C)C(=O)CSc2nc(N)cc(N)n2)cc1 | nt | 28
Cc1ccccc1-c1c(C)oc2cc(O)ccc2c1=O | nt | 12
Cc1c(/C=C(\C#N)C(=O)O)cc(C#N)n1C | nt | -11
COc1ccc(C2NC(=O)N(C)C(C)=C2C(=O)Nc2ccccc2)cc1 (stereo unspecified) | nt | 31
O=C(CNS(=O)(=O)c1cccs1)N1CCCCC1 | -0.3 | 12
CCC12CC3CC(Br)(C1)CC(C(=O)O)(C3)C2 (stereo unspecified) | -1.9 | 10
C=CCOc1cccc(C(=O)N2CCN(C)CC2)c1 | 0.9 | 0
O=C(CSc1ncccn1)NN=C1CCCCCC1 | 1.3 | -1
COC(=O)C1=C(C)NC(=O)CC1C(=O)Nc1ccccc1 (stereo unspecified) | -2.1 | 3
CC(C)(C)c1ccc(Oc2ccc(NC(=O)CSCC(=O)O)cn2)cc1 | 0.2 | nt
CCN(CC)C(=O)COc1ccc2ccc(=O)oc2c1 | 0.3 | -3
N#Cc1c(/N=C/c2cc(Cl)cc(Cl)c2O)sc2c1CCC2 | 0.3 | 3
CN(Cc1ccccc1)c1nc(-c2ccccc2)no1 | nt | 7
COc1cc(C(=O)CSc2cccc[n+]2[O-])cc(OC)c1OC | nt | -7
O=C(CN(Cc1ccco1)C(=O)c1nsc(Cl)c1Cl)NC1CCCCC1 | 3.2 | 11

Structure | MgrA DNA FP | S aureus helic
CSc1nc(N)nc(N2CCCCC2)n1 | -0.5 | nt
N#CCn1c(Cc2ccccc2)nc2ccccc2c1=O | 1.7 | -11
O=C(NC1CCCC1)c1ccc(S(=O)(=O)N2CCCCCC2)cc1 | 0.3 | 8
NC(=O)COC(=O)C12CC3CC(CC(Br)(C3)C1)C2 | 0.3 | 11
CN(C)C(=O)CCc1nc2ccccc2n1-c1ccccc1 | nt | -7
COC(=O)Cc1c(C)c2ccc(O)cc2oc1=O | nt | 9
Cc1sc2nc(CN3CCCC3)nc(Sc3nnnn3C3CC3)c2c1C | nt | -7
O=C(O)c1ccc(CCO)s1 | -0.9 | -9
CCOC(=O)c1cc(C(C)(C)C)oc1CN | -9.4 | 11
Cn1c(=O)c2c(nc(N3CCCCCC3)n2Cc2cccc(Br)c2)n(C)c1=O | -0.4 | nt
Cc1ccc(NC(=O)NC2CC(=O)N(c3ccc4c(c3)OCCO4)C2)cc1C (stereo unspecified) | nt | 14
Cn1nnnc1Sc1c(-c2ccccc2)c2ccc(Cl)cc2[nH]c1=O | nt | 26
Cc1ccc(C(=O)Oc2cccc(Cl)c2)cc1 | -0.7 | 9
CCOC(=O)CNc1ncnc2onc(-c3ccc(F)cc3)c12 | nt | -16
O=C(O)CCC(=O)N1N=C(c2c(-c3ccccc3)c3cc(Cl)ccc3[nH]c2=O)CC1c1ccccc1 (stereo unspecified) | 0.7 | nt
O=C1CS/C(=N\N=C/c2ccccc2)N1 | 0.1 | -1
Cc1nn(-c2ccccc2)c2nc(-c3ccccc3)cc(C(=O)NCc3ccco3)c12 | nt | -1
COC(=O)c1c(C)oc2ccc(OC)cc12 | nt | 11
Cc1cc(C)n(CCc2nc3c4ccccc4n(CC(=O)Nc4ccc(Cl)cc4F)c(=O)n3n2)n1 | nt | 9
COc1ccc(C(O)C(F)(F)F)cc1 (stereo unspecified) | 0.2 | 1

| mol | MgrA DNA FP | S aureus helic |
| --- | --- | --- |
| O=C(O)CCC(=O)N1N=C(c2ccccc2)CC1c1ccc2nccnc2c1 (stereo unspecified) | 0.3 | 0 |
| COc1c2occc2c(OC)c2c(=O)cc(C(F)(F)C(F)(F)F)oc12 | nt | -27 |
| O=C(CC1C(=O)N2CCNC2=C1C(=O)c1ccc(Cl)cc1)Nc1ccccc1 (stereo unspecified) | nt | -11 |
| COc1cc(CN2CCSCC2)ccc1O | -1.2 | 8 |
| COC(=O)/C(=C/N(C)C)Sc1cc(C)c(Cl)cc1Cl | 5.0 | nt |
| COc1cccc(NC(=O)C(c2ccccc2)N2CC(C)OC(C)C2)c1 (stereo unspecified) | nt | 20 |
| Cc1ccc(SC(=O)c2cnn(C)c2-n2cccc2)cc1 | -4.0 | nt |
| CC1CCCN(C(=O)CSc2nc3cc(Cl)ccc3o2)C1 (stereo unspecified) | nt | 7 |
| OCCNC1CCCc2ccccc21 (stereo unspecified) | 4.6 | 1 |
| O=C(Nc1ccc(Oc2cc(C(F)(F)F)cc(C(F)(F)F)c2)cc1)Nc1ccc(OC(F)(F)F)cc1 | 3.4 | nt |
| Cc1ccc2nc(SCC(=O)NC(N)=O)[nH]c2c1 | nt | -6 |
| C/C(=C\C(=O)c1ccccc1)NCc1ccccc1 | 0.6 | -3 |
| N#Cc1ccc(C#CCOC(=O)Nc2ccccc2)cc1 | -3.0 | nt |
| Clc1ncnc2c1ncn2C1CCCCO1 (stereo unspecified) | 3.1 | -1 |
| Cc1cc(C(=O)CSCCCn2c(=O)[nH]c3ccccc32)c(C)n1C1CC1 | nt | -13 |
| CCN(C(=O)C1CCCO1)C1CCCCC1 (stereo unspecified) | -2.8 | 11 |
| CCN1C(C)=C(C)S/C1=C1\SC(=S)N(C2CCCCC2)C1=O | 9.3 | -49 |
| CCOC(=O)c1c(-c2ccccc2)csc1N | 3.7 | -12 |
| O=C(Nc1nnc(-c2ccco2)o1)C1=COCCO1 | nt | 21 |
| NC(=O)c1c(/N=C/c2ccccc2Cl)sc2c1CCCC2 | 1.2 | nt |
| Cc1ccc(S(=O)(=O)N(C#N)c2nc(C)cc(C)n2)cc1 | -4.7 | 7 |
| CC1(C)CC(=O)C=C(NNC(=O)c2cccnc2)C1 | nt | -4 |
| O=C(Nc1ccc2nc(-c3ccccn3)[nH]c2c1)c1ccccc1F | nt | 11 |
| CC(=O)NC(c1ccco1)c1c(O)ccc2ccccc12 (stereo unspecified) | 2.4 | 1 |
| O=S1(=O)CCC(Nc2ccccc2)C1 (stereo unspecified) | nt | -4 |
| CCN1CCCC1CNC(=O)c1ccc(N(C)S(=O)(=O)c2ccc(C)cc2)cc1 (stereo unspecified) | nt | -5 |
| O=C(Nc1ccc(-c2cn3c(n2)SCC3)cc1)C1CC1 | 2.5 | nt |
| NC(N)=NC(N)=NCc1ccccc1 | 4.3 | 5 |
| Cc1ccccc1Cn1c2ccccc2c2cn[nH]c(=O)c21 | nt | -20 |
| Cc1nn(-c2ccccc2)c(C)c1-c1nc(-c2ccc(C(C)(C)C)cc2)no1 | nt | 29 |

Rewritten with two lines to a compound: entries from further up
Below each compound – MgrA DNA FP, S aureus helic
> CC1(C)CC(=O)C=C(NNC(=O)c2cccnc2)C1
→ nt, -4
> O=C(Nc1ccc2nc(-c3ccccn3)[nH]c2c1)c1ccccc1F
→ nt, 11

Next section:
| mol | MgrA DNA FP | S aureus helic |
| --- | --- | --- |
| O=C1COc2ccc(C(=O)CSc3nnc(Cc4cccs4)n3Cc3ccco3)cc2N1 | nt | -1 |
| CSc1sc(-c2ccnc(SCCS(C)(=O)=O)n2)c(-c2ccccc2)c1C#N | -1.9 | nt |
| Cc1ccc(Br)cc1[N+](=O)[O-] | 0.9 | nt |
| CCCCCCCCCCc1ccc(C(C)=O)cc1 | -1.7 | nt |
| COc1ccc(NC(=S)NNC(=O)c2ccccc2[N+](=O)[O-])cc1 | 2.2 | nt |
| CC1(C)CC(NC2CCC(C#N)(c3ccccc3)CC2)CC(C)(C)N1 (stereo unspecified) | nt | 17 |
| Cc1cc(C)n(S(=O)(=O)c2ccc(-c3cc(C(F)(F)F)n(C)n3)s2)n1 | -2.4 | nt |
| Cc1cc(N2CCN(c3ncccn3)CC2)nc2ccc(NC(=O)c3cccc(F)c3)cc12 | nt | -34 |
| Cc1nc(-c2ccncc2)nc(NCCNc2ncccc2C(F)(F)F)c1Cl | 3.6 | nt |
| CC(C)(C)C(=O)C[n+]1cccc(/C=N/O)c1 | nt | 24 |
| O=C(CN1C(=O)CC(c2ccco2)Sc2ccccc21)c1ccccc1 (stereo unspecified) | nt | 17 |
| O=C1CC(Sc2ncccc2C(=O)O)C(=O)N1 (stereo unspecified) | 7.9 | 12 |
| NNC(=O)C1COc2ccccc2O1 (stereo unspecified) | 2.9 | nt |
| Cc1ccc(N2C(=O)CSC2c2ccccc2C(F)(F)F)cc1C (stereo unspecified) | -1.2 | 1 |
| CCC(C)=C(C(=O)OC)C(=O)OC | -2.2 | 8 |
| CC(=O)NCc1ccco1 | nt | -2 |
| CSc1n[nH]c(-c2ccco2)c1C#N | -1.2 | nt |
| CCCCC(=O)n1c(=O)oc2ccc(C(C)(C)C)cc21 | nt | 7 |
| O=C(Nc1ccc(F)cc1F)c1ccc2c(c1)C(=O)N(Cc1ccco1)C2=O | nt | -4 |
| Cc1ccc(S(=O)(=O)N2CCCCC2)cc1C(=O)c1nccn1C | nt | -10 |
| Cc1cc(C)c(Cn2c(S(=O)(=O)Cc3ccccc3)nc3ccccc32)c(C)c1 | -0.7 | 11 |
| Cc1cccc2sc(NC(=O)CN(C)S(=O)(=O)c3cccs3)nc12 | nt | -12 |
| CC(=O)N1CCN(C(=O)Nc2c[nH]c3ccccc23)CC1 | nt | 10 |
| O=C(COC(=O)c1ccco1)NC1CCCc2ccccc21 (stereo unspecified) | nt | 7 |
| CN(C)c1ccc(-c2n(C)c3ccccc3[n+]2C)cc1 | 0.4 | -9 |
| COC(=O)c1ccc(COC(=O)c2cccs2)cc1 | 0.9 | -2 |
| Cc1ccc(CSCc2ccc(C(=O)NCCc3ccccc3)o2)cc1 | -2.5 | 0 |
| C=CCN1C(=O)C2Cc3c([nH]c4ccccc34)C(C)N2C1=S (stereo unspecified) | 6.0 | -88 |
| CCn1c(SCC(=O)Nc2sccc2C(N)=O)nnc1-c1ccco1 | nt | -4 |
| COc1ccccc1/C=C1\SC(=S)N(CCC(=O)Nc2sc3c(c2C(N)=O)CCCC3)C1=O | -1.4 | nt |

| mol | MgrA DNA FP | S aureus helic |
| --- | --- | --- |
| O=C1CS(=O)(=O)C(c2cccnc2)N1c1ccccc1 (stereo unspecified) | -2.4 | nt |
| C/C(=N\NC(N)=O)C1CCCCC1 | nt | 8 |
| O=C(CCC(=O)N1CC2CCCN2c2ccccc21)NCc1ccco1 (stereo unspecified) | nt | -6 |
| O=C(NC1CC1)C1CSC(c2cccs2)=N1 (stereo unspecified) | nt | 23 |
| O=c1nc(N2CCOCC2)ccn1Cc1ccc(Br)cc1 | 0.5 | 8 |
| O=C(CC1OCCN(Cc2ccccc2)C1=O)Nc1ccc(F)cc1 (stereo unspecified) | nt | 13 |
| Cc1nc2cc(C(=O)NCc3ccccn3)ccc2n1-c1cccc(F)c1 | nt | -1 |
| O=C(OCC1CC2C=CC1C2)c1cc2ccccc2oc1=O (stereo unspecified) | -0.3 | 5 |

Profiles as entered above. Values in the order: MgrA DNA FP	S aureus helic
Cc1nc2cc(C(=O)NCc3ccccn3)ccc2n1-c1cccc(F)c1 in the list: nt	-1
C/C(=N\NC(N)=O)C1CCCCC1 in the list: nt	8
O=C(CC1OCCN(Cc2ccccc2)C1=O)Nc1ccc(F)cc1 (stereo unspecified) in the list: nt	13

A portion of the library. The share of hits here may be higher or lower than overall.
